# Bioassay records (PubChem BioAssay)
# Arbovirus inh: antivirals against arbovirus infection; actives 0.37% (n = 200,000); inhibition, % at 10 µM; arbovirus infection cell-based antiviral screen;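 active = inhibition from about 30%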;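 note: bluetongue infection of BSR cells; cell survival read as ATP light after 72 h; 0% = infected wells without compound and 100% = uninfected wells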
# YopH PTP inh: inhibitors of Yersinia enterocolitica YopH tyrosine phosphatase. AID 898. fluorescence Ex485/Em525. actives 0.16% (n = 140,000). inhibition, %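 (about 10 µM by stock and volumes)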;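 active = inhibition of 50% or more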;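 note: controls were vehicle for no effect and minimum signal wells for full effect; inactives centre near -20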
# Mtb betalactam: beta-lactam sensitization of Mtb H37Rv; M. tuberculosis H37Rv growth with meropenem, percent inhibition; hits of this screen are not shown here; inhibition, % at 25 µM; actives 0.27% (n = 330,000); AID 434955;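 active = about 74% or more and at least 40 points above the plate without the antibiotic, then above 30% in a dose series; inconclusive = first-round hits that could not be retested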;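 note: growth measured after seven days incubation then overnight dye step; 0% = bacteria only wells and 100% = bacteria with antibiotic; twin plates without the antibiotic show which effects depend on it; some results filed as inactive read as strong as hits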
# RecA splice inh: blocks M. tuberculosis RecA intein splicing. actives 0.75% (n = 290,000). cell-free RecA intein splicing, fluorescence. inhibition, %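 (about 9 µM by stock and volumes)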; in the data active = inhibition above about 30%; inconclusive = no clear call, values can overlap the other calls;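 note: 0% = vehicle wells and 100% = reference inhibitor control wells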
# Target sequence (P9WHJ3 whole entry, looked up, canonical isoform): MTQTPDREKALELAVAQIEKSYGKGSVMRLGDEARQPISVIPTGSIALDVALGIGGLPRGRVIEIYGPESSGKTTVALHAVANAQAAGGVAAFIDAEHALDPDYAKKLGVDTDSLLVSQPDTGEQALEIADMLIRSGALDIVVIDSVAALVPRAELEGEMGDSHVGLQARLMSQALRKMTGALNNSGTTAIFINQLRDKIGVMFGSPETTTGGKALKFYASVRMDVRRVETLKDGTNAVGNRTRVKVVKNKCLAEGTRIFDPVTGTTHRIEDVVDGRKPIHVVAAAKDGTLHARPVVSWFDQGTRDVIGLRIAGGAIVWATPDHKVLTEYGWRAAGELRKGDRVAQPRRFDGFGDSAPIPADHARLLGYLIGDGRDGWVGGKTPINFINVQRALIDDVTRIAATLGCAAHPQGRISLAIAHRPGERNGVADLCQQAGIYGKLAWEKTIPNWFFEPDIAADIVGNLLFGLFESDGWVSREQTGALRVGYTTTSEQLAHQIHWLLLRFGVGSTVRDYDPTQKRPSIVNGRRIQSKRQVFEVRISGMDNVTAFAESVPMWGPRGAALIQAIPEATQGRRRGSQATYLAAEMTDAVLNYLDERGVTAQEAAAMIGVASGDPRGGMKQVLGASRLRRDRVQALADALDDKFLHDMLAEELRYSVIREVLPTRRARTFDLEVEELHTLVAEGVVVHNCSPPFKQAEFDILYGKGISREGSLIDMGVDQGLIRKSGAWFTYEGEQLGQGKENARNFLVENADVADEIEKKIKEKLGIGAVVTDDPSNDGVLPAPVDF
# Mtb H37Rv: M. tuberculosis H37Rv growth inhibitors, H37Rv strain (AID 1626) | M. tuberculosis H37Rv growth inhibition; higher % means a stronger effect | one-dose inhibition, % at 10 µM; IC50 in µM for titrated hits | actives 0.95% (n = 220,000);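 active = confirmed in a dose series; inconclusive = inhibition above 80% but not taken into the dose series; inactive = below 80% or under 30% at every dose of the series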;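 note: bacteria incubated seven days before Alamar blue readout; 0% = bacteria only wells and 100% = bacteria with antibiotic wells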
# Arbovirus inh repeat: further read-out of Arbovirus inh, marked with its call; inhibition, %; measured here: 10K subset replicate screen; many hits read low in the repeat;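 first of two repeat runs on a subset; 0% = infected and 100% = uninfected wells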
# * = called active by the depositor; ? = inconclusive; / = not tested or not shown. The list is partial; the hit share may differ from the screen's.
SMILES,Arbovirus inh,YopH PTP inh,Mtb betalactam,RecA splice inh,Mtb H37Rv,others
COc1cc(OC)c(NC(=O)CC(C)=O)cc1Cl,-3,-21,4,-1.0,5%,
Cc1ccc(C(=O)Nc2cc3c(cc2N2CCCCC2)n(C)c(=O)n3C)cc1,/,/,0,-2.0,/,
CCNC(=O)c1sc(-c2ccccc2)nc1C,-3,-34,-16,1.0,-2%,
CC(C)(C)N1C(=O)c2ccc(C(=O)Nc3ccc(-c4nc5ccccc5[nH]4)cc3)cc2C1=O,-16,-18,7,-3.2,-6%,
O=C(NC(=S)NN1CCCCC1c1cccnc1)c1ccc(Cl)cc1Cl (stereo not given),/,/,-11,2.1,3%,
CCc1cc2cc(OC)ccc2nc1SCC(=O)NNC(=O)c1ccco1,2,/,3,/,-5%,
CCN(CC)CCN1C(=O)C(=O)/C(=C(/O)c2c(C)[nH]c(C(=O)OC)c2C)C1c1ccc(C)o1 (stereo not given),/,/,-5,-1.5,0%,
CCNC(=S)N1CCN(S(=O)(=O)c2ccccc2C(F)(F)F)CC1,13,/,-6,-8.6,-2%,
O=C1CC(c2ccccc2)n2nc(NC(=O)c3ccccc3)nc2N1 (stereo not given),3,-48,-6,-0.2,-6%,
Cc1ccc(S(=O)(=O)N[C@H](C(=O)Oc2ccc3c(C(F)(F)F)cc(=O)oc3c2)c2ccccc2)cc1,9,-37,-7,-402,-5%,
CCOc1ccc(C(=O)NC(=S)NC2CCCC2)cc1[N+](=O)[O-],11,-24,-5,0.9,9%,
CCOC(=O)C1CCCN(c2nc3ccccc3nc2C(C#N)C(=O)NCc2ccccc2)C1 (stereo not given),16,-27,9,-38,56%,
Cc1c(C(=O)N/N=C/c2ccc(O)c(Br)c2)sc(N)c1C#N,-14,-30,-1,/,6%,
O=C(Cn1ncc2c(=O)oc3ccccc3c21)NCCc1ccsc1,4,-42,-6,-5.6,1%,
CCOC(=O)c1c(NC(=O)C2=COCCO2)sc2c1CCN(C(=O)OC)C2,/,/,-1,4.1,/,
CCCCn1c(SCC(=O)c2ccc(OC)cc2OC)nc2cc(S(N)(=O)=O)ccc21,1,-47,26,/,9%,
Cc1cc(-c2onc(C)c2C(N)=O)no1,/,/,2,-3.4,-8%,
COc1ccc(C(=O)N2CCN(c3cccc(Cl)c3)CC2)cc1,-4,-17,-2,3.1,-7%,
CC(/C=C1\SC(=S)N(C(C(=O)O)c2ccccc2)C1=O)=C\c1ccccc1 (stereo not given),/,/,-8,20,4%,
COc1ccc(-c2ccc(OC)c([C@H]3[C@H]4C=CC[C@@H](C)[C@@H]4C(=O)N3Cc3ccccc3)c2)cc1C,/,/,-3,2.3,22%,
CN(Cc1ccccc1)C(=O)CN1C(=O)C2C3C=CC(C3)C2C1=O (stereo not given),5,6,-6,0.1,-3%,
CCC1CCCCN1CCCNC(=O)Cn1nc(-c2ccc(C)cc2)ccc1=O (stereo not given),-2,2,4,4.7,-9%,
Cc1cccc(-c2oc3ccc(-c4ccc5c(c4)OCO5)cc3c2C(=O)OCc2ccc(O)cc2)c1,/,/,-8,5.0,/,
CSc1cccc(NC(=O)c2ccccn2)c1,1,/,-4,0.4,3%,
CC(C)(C)N=C1NN=C(c2ccc(Cl)cc2)CS1,/,/,1,-0.3,0%,
O=C(CN1CCCCCC1=O)N1CCN(S(=O)(=O)c2cccs2)CC1,5,/,-5,-0.2,-6%,
Nc1nc(SCC(=O)Nc2ccc3c(c2)OCO3)n[nH]1,1,/,22,0.8,9%,
COc1ccc(C(NC(=O)C(C)(C)C)NC(=O)C(C)(C)C)cc1,3,-12,-5,-1.4,-9%,
COc1ccc(OC)c(NC(=O)c2cccnc2Sc2ccccc2)c1,5,-22,8,1.1,12%,
C/C(=N\NC(=O)c1ccccc1)c1ccc(N2CCOCC2)cc1,-5,-21,9,1.6,-4%,
O=c1[nH]c(O)c(/C=C2/C=CC(c3cc(Cl)ccc3Cl)=N2)c(=O)[nH]1,/,/,100,1.3,/,
Cc1ccc(Cl)cc1NC(=O)CNCC(c1ccccc1)N(C)C (stereo not given),/,/,-1,-1.2,/,
CCN1CCN(C(=O)Nc2cccc(C(F)(F)F)c2)CC1,4,-24,-8,-1.8,5%,
O=C(Nc1ccc(F)cc1)c1nc2c(nnn2Cc2cccc3ccccc23)c(=O)[nH]1,/,/,8,-4.1,4%,
Cc1cccc(NC(=O)NNC(=O)c2sccc2-n2cccc2)c1,4,/,2,-1.9,-1%,
Cc1cc(C(F)(F)F)c(C#N)c(SCC(=O)Nc2nc3cc(Br)ccc3s2)n1,-25,-32,3,5.8,-14%,
O=C(CSc1nnc(-c2ccco2)o1)c1ccc[nH]1,16,/,-2,0.4,-1%,
O=C(O)CSCc1nc2scc(-c3ccccc3)c2c(=O)[nH]1,1,/,-4,1.0,-1%,
Cc1nc(C)c(-c2nnc(-c3cccc(S(=O)(=O)N(C)C)c3)o2)cc1C(=O)NN,/,/,-3,-0.8,/,
CCn1c(CCC(=O)N(C)CC(=O)Nc2cccc(F)c2)nc2cc(S(=O)(=O)N(C)C)ccc21,/,/,-7,-0.2,/,
COc1cccc2cc(C(=O)NC3CC(C)(C)NC(C)(C)C3)c(=O)oc12,/,-31,-3,-2.1,-1%,
CCCCC(c1nnnn1CS(=O)(=O)c1ccc(C)cc1)N1CCN(c2ccccc2)CC1 (stereo not given),-1,23,-6,3.0,/,
O=C(N/N=C/c1oc(O)c2ccccc12)c1ccccc1,6,/,7,-13,-3%,
CC(=O)Nc1ccc(NC2CCCCC2NS(=O)(=O)c2ccc(Cl)cc2)cc1 (stereo not given),/,/,-1,-0.4,/,
COc1ccc(NC(=O)NC(C)c2ccc3c(c2)OCO3)c(OC)c1 (stereo not given),/,/,-14,1.1,/,
CC(=O)Nc1ccc(NC(=O)CSc2ccc([N+](=O)[O-])cn2)cc1,/,/,-5,0.9,-4%,
CC(=O)N1CC(C)Sc2ccc(S(=O)(=O)NC(C)c3ccccc3)cc21 (stereo not given),/,/,-7,1.5,/,
CC(=O)N1CCc2cc(Br)cc(S(=O)(=O)N3CCN(c4ccccn4)CC3)c21,/,17,-5,-3.8,/,
CCCCOC(=O)c1ccc(NC(=S)NC(=O)c2ccco2)cc1,/,/,98,-3.9,/,
COc1ccccc1OCC(=O)NNC(=O)Nc1ccccc1,/,/,-3,0.3,/,
Cc1cc(OC(C)C(=O)NCCCn2ccnc2)c2c(C)cc(=O)oc2c1 (stereo not given),/,/,1,-2.2,/,
C/C(CC(=O)Nc1c(C)cc(C)cc1C)=N\NC(=O)Cc1ccccc1,/,/,1,-1.3,/,
N#CC(C#N)=C1NC2(CCCCC2)Cc2ccccc21,/,/,2,-1.6,-8%,
COc1cc(-c2nc3cc(C)ccn3c2NC2CCCCC2)ccc1-c1ccc(C(C)=O)cc1,/,/,89,-6.3,/,
O=C(O)CSCNC(=O)C12CC3CC(CC(C3)C1)C2,-5,-15,-4,-0.5,-12%,
CC(C)NC(=S)N/N=C/c1ccc(C(C)(C)C)cc1,-33,/,5,0.6,18%,
O=C(COc1ccccc1)Nc1cccc2c1CCCC2,-4,-46,66,3.0,31%,
O=C1CN(c2ccc(Cl)cc2)C(=O)CN1NC(=S)Nc1ccc(Cl)cc1,10,-32,-10,-1.0,-3%,
COc1cc(CN2CCN(C(=O)c3ccccc3F)CC2)cc(OC)c1OC,/,/,-4,1.8,/,
CC(C)(C)OC1NS(=O)(=O)OCC1NCOC(Cl)(Cl)Cl (stereo not given),/,/,18,3.5,/,

# Structural class: the entries above containing a COOH group (three)
SMILES,Arbovirus inh,YopH PTP inh,Mtb betalactam,RecA splice inh,Mtb H37Rv,others
CC(/C=C1\SC(=S)N(C(C(=O)O)c2ccccc2)C1=O)=C\c1ccccc1 (stereo not given),/,/,-8,20,4%,
O=C(O)CSCc1nc2scc(-c3ccccc3)c2c(=O)[nH]1,1,/,-4,1.0,-1%,
O=C(O)CSCNC(=O)C12CC3CC(CC(C3)C1)C2,-5,-15,-4,-0.5,-12%,

# More compounds.
SMILES,Arbovirus inh,YopH PTP inh,Mtb betalactam,RecA splice inh,Mtb H37Rv,others
CC(=O)c1nc2ccccc2n1S(=O)(=O)c1ccc(C)cc1,3,-37,-3,-0.3,-2%,
COc1ccc(C)cc1C(=O)CCC(=O)Nc1ccccc1N1CCOCC1,-32,12,-5,-5.8,16%,
CCOc1cc(C(=O)NCc2ccc(C)cc2)ccc1OCC(=O)N1CCOCC1,22,/,-1,-0.2,1%,
CC1=C(C(=O)OCc2ccccc2)C(/C=C/c2ccccc2)NC(=S)N1 (stereo not given),-33,-28,58,28,45%,
CCOC(=O)C1CCN(C(=O)c2cc3cc(Br)ccc3oc2=O)CC1,4,/,6,-3.0,0%,
COc1cccc(OC)c1C(=O)Nc1sc2c(c1C(N)=O)CCCC2,/,/,2,1.5,/,
CN(C(=O)COC(=O)c1cc(=O)[nH]c2ccccc12)c1c(N)n(Cc2ccccc2)c(=O)[nH]c1=O,/,/,-16,-4.6,/,
COc1ccc(C)cc1Nc1cc(C)nc2nc(C)nn12,-10,-9,0,2.6,2%,Arbovirus inh repeat=-14
CC(C)(C)NC(=O)CN(Cc1cccs1)C(=O)CN1C(=O)C(=O)c2ccccc21,-2,/,-2,0.7,-8%,
COc1ccc(CN(C(=S)Nc2ccccc2)C2CC(=O)N(c3ccc(Cl)cc3)C2=O)cc1 (stereo not given),-42,-1,0,2.2,3%,
N#Cc1cc2c(nc1SCC1COc3ccccc3O1)CCC2 (stereo not given),4,-34,-6,0.5,-7%,
COC(=O)C(C)(C)ONC(=O)Nc1ccccc1,-3,-16,3,0.9,7%,
Cc1ccc(S(=O)(=O)Nc2ncc(C(F)(F)F)cc2Cl)cc1,-2,/,-6,1.5,3%,
O=C(/C=C/c1cccc(F)c1)N1CCN(c2ccccn2)CC1,/,/,-5,1.4,-1%,
O=C(CSc1nnc2c3ccccc3c3ccccc3c2n1)Nc1ccccc1,-12,8,?,2.7,/,
COc1cc2c(cc1OC)CN(CC(=O)Nc1ccc(C)c(S(=O)(=O)N3CCOCC3)c1)CC2,/,/,-3,-4.4,/,
Nc1nc(SCc2nnc(SCC(=O)O)n2-c2ccccc2)nc2sc3c(c12)CCCC3,2,-52,-2,-1.9,-9%,
O=C(/C=C/c1ccccc1)OCc1cnc(Cl)s1,-2,/,-1,2.5,7%,
COc1ccccc1CNC(=O)c1cn(C)c(=O)c2cc(OC)c(OC)cc12,2,-8,-5,3.9,-3%,
CCSc1nc2sc3c(c2c(=O)n1CC)CCC3,/,/,0,4.5,/,
N/C(=N\OC(=O)COc1cc(Cl)c(Cl)cc1Cl)c1ccccn1,-3,/,6,-2.6,4%,
O=C1CC(c2ccsc2)Sc2ccccc2N1 (stereo not given),/,/,7,0.4,2%,
Brc1ccccc1-c1nnc2sc(Cc3ccccc3)nn12,-12,-16,7,6.1,16%,
CCOc1ccc(-c2noc(=O)[nH]2)cc1,-1,-52,0,-0.1,1%,
COc1ccc(NC(=O)c2c(-c3c(Cl)cccc3Cl)noc2C)c(OC)c1,/,/,0,11,/,
CC(NC(=O)OCc1ccccc1)C(=O)NCC1CCCO1 (stereo not given),2,-38,3,2.6,-3%,
C/C(=N\NC(=O)c1ccc(NS(=O)(=O)c2cccs2)cc1)c1ccc2c(c1)OCO2,1,/,7,0.2,8%,
O=S(=O)(NNC(=S)Nc1ccc(S(=O)(=O)Nc2ncccn2)cc1)c1ccc(Br)cc1,/,/,-5,-8.9,/,
COc1cc(/C=C2/C(=O)N(c3ccc([N+](=O)[O-])cc3)N=C2N2CCOCC2)ccc1O,/,/,76,46*,56%,
N#CSCC(=O)N1c2ccccc2CCc2ccccc21,-32,-19,78,-3.4,52%,
COC(=O)C(C(=O)OC)C(CC(=O)c1ccc(C)cc1)c1cc(OC)c(OC)c(OC)c1 (stereo not given),/,/,-1,1.0,/,
CC(=O)c1ccc(C(=O)Nc2nnc(-c3ccc(Cl)cc3)o2)cc1,-3,/,96,2.8,?,Arbovirus inh repeat=-5

# Grouped by structure, the entries above with bromine (6)
SMILES,Arbovirus inh,YopH PTP inh,Mtb betalactam,RecA splice inh,Mtb H37Rv,others
Cc1c(C(=O)N/N=C/c2ccc(O)c(Br)c2)sc(N)c1C#N,-14,-30,-1,/,6%,
Cc1cc(C(F)(F)F)c(C#N)c(SCC(=O)Nc2nc3cc(Br)ccc3s2)n1,-25,-32,3,5.8,-14%,
CC(=O)N1CCc2cc(Br)cc(S(=O)(=O)N3CCN(c4ccccn4)CC3)c21,/,17,-5,-3.8,/,
CCOC(=O)C1CCN(C(=O)c2cc3cc(Br)ccc3oc2=O)CC1,4,/,6,-3.0,0%,
Brc1ccccc1-c1nnc2sc(Cc3ccccc3)nn12,-12,-16,7,6.1,16%,
O=S(=O)(NNC(=S)Nc1ccc(S(=O)(=O)Nc2ncccn2)cc1)c1ccc(Br)cc1,/,/,-5,-8.9,/,
